Screening results: PubChem, ICCB-Longwood Screening Facility, Harvard Medical School
AID504770: growth inhibition of E. coli YBA685, primary screen, V. cholerae RctB inhibitors; E. coli YBA685 rctB-dependent plasmid, OD600 growth, 3 h; hits give low values; z-score (test concentration not listed); hit rate 0.27% among 130,000; AID 504770, 2011;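 active = z-score under -2 on both plates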;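 note: wells of about 30 µL received 100 nL stock; score is relative to mean and SD of the test wells; the first replicate is given; strong numbers were not always called active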
Ba CapD inh: Bacillus anthracis CapD inhibitors, primary screen, biochemical, fluorescence intensity; CapD gamma-glutamyltranspeptidase (Bacillus anthracis Ames Ancestor); purified CapD enzyme, fluorescence intensity read-out; hits give low values; some hits fall short of the stated cut; z-score (test concentration not listed); hit rate 0.23% among 140,000; AID 492967, 2010;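 active = z-score under -4 in either of two replicates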;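 note: stock transfer was 100 nL into about 40 µL; score is relative to mean and spread of the plate; one replicate is shown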
Starred values were filed as active, the others as inactive; . = not tested or not shown. Only part of the results is shown. The share of hits here may be higher or lower than overall.

Each structure is followed by: AID504770, Ba CapD inh
COc1ccc(CCNC(=O)c2ccnc(C(C)(C)C)c2)cc1OC
  1.9, -0.9
CN(C(=O)CCc1ccccc1)c1nnc(-c2ccncc2)s1
  0.8, .
CCCCC(=O)O[C@H]1CCC2C3CCc4cc(O)ccc4C3CC[C@@]21C (some centres not stated)
  0.25, 0.08
Cc1ccc(CNC(=O)c2cc3c(=O)[nH]c4ccccc4c3s2)cc1
  -0.05, -0.07
COC(=O)/C=C1\SC(=NC(=O)c2cccc(Cl)c2)NC1=O
  -0.85, -0.69
O=C(COc1ncn(-c2ccccc2)n1)N/N=C/c1cccc(OCc2ccccc2)c1
  ., 0.06
COc1cccc2cc(C(=O)N3CCCc4ccccc43)c(=O)oc12
  -0.3, -0.24
Cc1c(C#N)c(O)n(CCO)c(=O)c1N=Nc1cccc(C(=O)O)c1
  1.1, -8.3*
COC(=O)/C=C1\NC2CCCCC2NC1=O (configuration not stated)
  -0.05, 0.54
Nc1nc(CN2CCCC2c2ccc3c(c2)OCCCO3)nc(Nc2ccccc2)n1 (configuration not stated)
  -0.8, .

Filtered by structure, the entries above with an aryl methoxy group (2)
Each structure is followed by: AID504770, Ba CapD inh
COc1ccc(CCNC(=O)c2ccnc(C(C)(C)C)c2)cc1OC
  1.9, -0.9
COc1cccc2cc(C(=O)N3CCCc4ccccc43)c(=O)oc12
  -0.3, -0.24

(list continues)
Each structure is followed by: AID504770, Ba CapD inh
CC(=O)NCc1ccc(C(=O)COC(=O)c2ccc(S(=O)(=O)N3CC(C)CC(C)C3)cc2)o1 (configuration not stated)
  -0.25, .
CC(C)(C)NC(=O)CN1CCN(C(=O)CSc2nnc3c(n2)Nc2ccccc2S3)CC1
  0.3, .
O=C(c1c2c(nc3ccccc13)CCCC2)N1CCCCC1
  0.2, .
CC(C)NS(=O)(=O)Cc1ccccc1
  -0.25, -0.03
CN(C)/C=N/S(=O)(=O)c1ccc(-n2nc(C(F)(F)F)cc2-c2cccs2)cc1
  0.25, 0.29
CSc1ncc(C(=O)N(C)Cc2ccc3c(c2)OCO3)n1-c1ccccc1
  -0.5, .
CCc1ccc(NC(=O)CSC2=C(C#N)C(c3ccc(Cl)cc3Cl)CC(=O)N2)cc1 (configuration not stated)
  ., -0.43
CCOC(=O)c1oc2ccccc2c1COC(=O)CNS(=O)(=O)c1ccc2c(c1)OCCCO2
  -0.2, .
COc1cccc(NC(=O)COc2ccc(N3CC(C(=O)NCC(C)C)CC3=O)cc2)c1 (configuration not stated)
  1.4, 76
O=C(Cc1c[nH]c2ccccc12)N/N=C/c1ccc(Br)c(Br)c1
  ., -0.2

Next part; it opens with the 3 that closed the last part.
Each structure is followed by: AID504770, Ba CapD inh
CCOC(=O)c1oc2ccccc2c1COC(=O)CNS(=O)(=O)c1ccc2c(c1)OCCCO2
  -0.2, .
COc1cccc(NC(=O)COc2ccc(N3CC(C(=O)NCC(C)C)CC3=O)cc2)c1 (configuration not stated)
  1.4, 76
O=C(Cc1c[nH]c2ccccc12)N/N=C/c1ccc(Br)c(Br)c1
  ., -0.2
COC(=O)Cc1nc(N2CCN(c3ccc([N+](=O)[O-])cc3)CC2)c2c3c(sc2n1)CCCC3
  ., -0.81
Cc1cc(C)nc(N2CCC(C(N)=O)CC2)n1
  1.4, 16
FC(F)Oc1ccc(C2C=C(c3ccccc3)Nc3nc4ccccc4n32)cc1 (configuration not stated)
  ., -0.11
CN(C1CCCCC1)S(=O)(=O)c1ccccc1NC(=O)Cn1cnc2ccccc21
  -0.2, .
O=C(COc1ccccc1)Nc1c(-c2ccc(F)cc2)nc2ccccn12
  -0.5, 18
O=C1CCCCCN1C(=O)c1ccccc1
  -0.3, .
O=C1NN(c2ccccc2)C(=O)/C1=C/c1coc2ccccc2c1=O
  -1.1, 1.8
CCOc1ccc2nc(SCC(=O)c3ccc(C)s3)sc2c1
  -0.65, -0.065
CCS(=O)(=O)Cc1cccs1
  -0.2, .
O=C1CN(c2ccccc2)CC(=O)N1
  -0.7, 0.44
CN1C(=O)/C(=C/c2cccn2C(C)(C)C)C(=O)NC1=S
  -0.85, -4.5*
CCn1c(C(=O)OC)cc(=O)c2cc(OC)ccc21
  ., 1.5
O=C(NCc1ccco1)C1(c2ccccc2)CCCC1
  -0.4, -0.12
CCOC(=O)c1cccc(NC(=O)NCc2noc3ccccc23)c1
  0.2, -0.97
CC(C)(C)c1ccc(-c2nc(NCc3cccnc3)c3ccccc3n2)cc1
  ., 1.3
O=C(O)C1Cc2c([nH]c3ccccc23)C2(CCCCC2)N1 (configuration not stated)
  0.5, .
Cn1c(=O)n(C)c2cc(N3CCOCC3)c(N)cc21
  1.6, 2.2
CSCCC1C(=O)N(N)C2(C)CC(C)(C)NC(=S)N12 (configuration not stated)
  2.1, -1.5
O=C(Nc1ccccc1C(=O)NCc1cccs1)c1ccccc1Cl
  -1.2, -0.74
CSC(=NCc1ccco1)NC#N
  -0.1, 0.33
Cc1nc(-n2cccc2)sc1C(=O)N/N=C/c1ccccc1Cl
  0.35, 2.1
Cc1ccc(C(=O)NC2(C(=O)Nc3c(C)cccc3C)CCC(C(C)(C)C)CC2)cc1 (configuration not stated)
  ., -0.27
CCN(CCOC(=O)NNC(=O)/C=C/c1ccco1)c1ccc(N=Nc2ccc([N+](=O)[O-])cc2)cc1
  ., -0.72
Cc1c(C(=O)N/N=C/c2ccccc2)sc(=S)n1C
  -0.4, 0.14
CC(NC(=O)Nc1ccccc1)C(=O)O (configuration not stated)
  0.2, .
Cc1cc(C)c(C)c(S(=O)(=O)N2CCN(CCn3c(C)csc3=O)CC2)c1C
  0.2, .
Fc1ccc(C2=Nn3c(Cc4ccccc4)nnc3SC2)cc1
  -0.25, -0.45
COC(=O)CC1C(=O)NC2CCCCC2N1C(=O)c1ccccc1 (configuration not stated)
  -1.5, 2.8
C=Cn1cnc2c1c(=O)n(C)c(=O)n2C
  -0.9, 0.81
CCOC(=O)N/N=C/c1cccc2ccccc12
  ., 0.05
CN(C)C(=O)c1ccc(Oc2ccc(C(=O)N(C)C)cc2)cc1
  -0.45, 47
CCNc1ccc(S(=O)(=O)C(F)(F)F)cc1NC(=O)C12CCC(CC1)C2
  -1.8, 0.42
O=C(/C=C/c1cccs1)Nc1ccccc1-c1nc2ccccc2o1
  -0.5, 5.2
COc1ccc(Nc2cc(C)c(C#N)c3nc4ccccc4n23)cc1
  -0.4, 2
NC(=O)c1ccccc1NC(=O)c1ccc(C(=O)N(C2CCCCC2)C2CCCCC2)cc1
  -0.9, -0.025
O=c1oc(-c2ccc(F)cc2)nc2sc3c(c12)CCC3
  ., -0.22
O=C(CCCc1cccs1)Nc1nccs1
  0.15, .
CCN1C(=O)/C(=C\c2ccc(OC)cc2)C(C(=O)OC)=C1C
  -0.4, -4.9*
O=c1c(Cl)c(Cl)cnn1Cc1ccccc1
  1.4, -0.09
CC(=O)N1CCC(N(C(=O)COc2ccccc2C(=O)NCCc2ccc(S(C)(=O)=O)cc2)C2CC2)CC1
  ., -0.34
CCOCCOC(=O)C1=C(C)NC(=O)CC1c1cccc(Cl)c1 (configuration not stated)
  ., -0.52
CC(C)NC(=O)/C(=N\O)c1ccccc1
  -0.35, -0.69
COc1ccc(NC(=O)CN2C(=O)C3C4C=CC(C4)C3C2=O)cc1 (configuration not stated)
  ., -0.015
O=C(O)COCC(=O)Nc1ccc2c(c1)CCC2
  1.5, .
CCCNCC1CCCO1 (configuration not stated)
  -0.35, .
C=C(C)C1CC=C(CN2CCC(C(=O)OCC)CC2)CC1 (configuration not stated)
  -0.6, 0.2
CN1CCN(Cc2cc3cccc4c3n(c2=O)CCC4)CC1
  ., 13
CN(Cc1ccccc1)c1nc2c(S(=O)(=O)c3ccccc3)nnn2c2ccccc12
  0.85, -0.24
CC(Sc1nnc2n1CCCCC2)C(=O)c1c[nH]c2ccccc12 (configuration not stated)
  0.35, .
CN(C)C(=O)CSc1cccc2cccnc12
  -1.1, 82

Carrying on:
Each structure is followed by: AID504770, Ba CapD inh
COc1ccc(CCN2C(=O)CC(C(=O)Nc3ccc(C(=O)O)cc3)SC2=Nc2ccc(F)cc2)cc1 (configuration not stated)
  ., 0.25
Cc1ccc(-n2cc(-c3ccccc3)c3c(NCCN4CCOCC4)ncnc32)cc1
  -0.35, 0.21
NC(=O)C1CCN(C(=O)c2ccc3c(=O)n(C4CCCCC4)c(SCC(=O)N4CCCc5ccccc54)nc3c2)CC1
  ., -0.39
COc1ccc(-c2c(C)oc3cc(OC)ccc23)cc1
  -1.1, -0.99
CC(C)COC(=O)C(C)Nc1n[nH]c(=S)[nH]c1=O (configuration not stated)
  -0.9, -0.24
O=C(O)CC(c1ccccc1)c1ccc2c(c1)OCO2 (configuration not stated)
  2.3, -0.82
N#Cc1ccccc1S(=O)(=O)N1CCN(S(=O)(=O)c2ccccc2C#N)CC1
  1.1, 0.015
COc1ccc(CN2CCN(c3ncnc4onc(-c5ccc(F)cc5)c34)CC2)c(OC)c1OC
  -0.15, -0.53
NNC(=O)CSC(=S)N1CCCC1
  1.5, .
CC(C)C(=O)Nc1nc2ccc(Cl)cc2s1
  -0.2, 0.49

As entered above:
AID504770 result of Fc1ccc(C2=Nn3c(Cc4ccccc4)nnc3SC2)cc1 reads -0.25
Ba CapD inh result of O=C(COc1ccccc1)Nc1c(-c2ccc(F)cc2)nc2ccccn12 reads 18
AID504770 result of O=C(O)COCC(=O)Nc1ccc2c(c1)CCC2 reads 1.5
Ba CapD inh result of CCOCCOC(=O)C1=C(C)NC(=O)CC1c1cccc(Cl)c1 (configuration not stated) reads -0.52
Ba CapD inh result of CC(=O)N1CCC(N(C(=O)COc2ccccc2C(=O)NCCc2ccc(S(C)(=O)=O)cc2)C2CC2)CC1 reads -0.34

Going on with the list:
Each structure is followed by: AID504770, Ba CapD inh
COc1ccc(C(CC(=O)c2ccccc2)Sc2ccccc2N)cc1 (configuration not stated)
  0.65, 0.24
CC(NC(=O)Cn1[nH]c(=O)c2ccccc2c1=O)c1ccc(S(N)(=O)=O)cc1 (configuration not stated)
  -0.45, .
CC(C)CCOc1ccc(NC(=O)C2OC3OC(C)(C)OC3C3OC(C)(C)OC23)cc1 (configuration not stated)
  ., 0
COc1ccc2oc(=O)c(C(=O)N3c4ccccc4CC3C)cc2c1 (configuration not stated)
  -0.05, -0.52
O=C1CC2C(=O)NCCN2C(=NC(=O)c2ccccc2)N1 (configuration not stated)
  0.2, -0.62
O=C(NCCN1CCOCC1)NC(c1ccccc1)c1ccccc1
  0.7, .
CC(NC(=O)CSc1n[nH]c(N)n1)c1ccccc1 (configuration not stated)
  1.2, .
CCN=C1Sc2nc3ccc(OCC)cc3cc2CN1CCOC
  -0.3, .
CSCCC(NC(=O)c1ccc(C(F)(F)F)cc1)C(=O)NNC(=O)CC1=C(C)/C(=C/c2ccc(S(C)=O)cc2)c2ccc(F)cc21 (configuration not stated)
  ., -0.98
CCN(CC)CCCNc1ccc(-c2nnc(-c3ccc(OCC(C)C)cc3)o2)cn1
  -0.7, .
C/C(=N\N)c1c(-c2ccccc2)[nH][nH]c1=O
  0.95, .
Cc1cc(C(=O)Nc2ccc(N3CCOCC3)cc2)c(C)s1
  -0.25, .
C=CCC1c2cccc(C(=O)O)c2C(=O)N1c1ccc(OC)cc1 (configuration not stated)
  -0.3, 0.075
O=C(CCn1c(=O)c2cccn2c2cccnc21)N1CCN(c2ccccn2)CC1
  0.4, 2.8
O=C(Cc1cn2ccsc2n1)N/N=C/c1ccc2ncccc2c1
  -0.3, .
O=S(=O)(c1ccccc1)c1ccccc1/C=N\O
  -1, .
COc1ccccc1NC(=O)Cn1c(=O)n(Cc2ccccn2)c(=O)c2sc3ccccc3c21
  -1.4, 3.8
Cc1ccc(NC(=O)CC2SC(=O)NC2=O)cc1 (configuration not stated)
  ., -0.12
O=C(O)CCCC(=O)Nc1ccc(Oc2ccccc2)cc1
  -0.6, -1.1
Cc1c(N=c2scc(-c3ccc4c(c3)NC(=O)CO4)n2Cc2ccccc2)c(=O)n(-c2ccccc2)n1C
  0.2, .
CN(C)CCNC(=O)c1ccccn1
  1.6, 2.8
O=C(Nc1ccccc1)OCc1ccc(-c2cc(C(F)(F)F)cc(C(F)(F)F)c2)o1
  0.75, 1.6
Cc1ccc(N=Nc2c(N)n[nH]c2N)cc1
  -0.45, -3.7
CC1=C(Cc2cc3ccc(=O)oc3cc2O)CC(C)(C)CC1
  -1.1, -1.2
COC(=O)CCC/C=C1/SCC(NC(=O)c2ccccc2)C1NC(C)=O (configuration not stated)
  ., 1.2
Cc1ccc(C(=O)Nc2ccc(S(=O)(=O)N3CCOCC3)cc2)cc1C
  1.2, -0.39
COC(=O)/C=C1/Nc2ccccc2SC1=O
  1.4, -0.33
Cc1c(C(=O)NCCc2ccc(Cl)cc2)oc2ccc(S(=O)(=O)N3CCC(C)CC3)cc12
  -0.65, -0.23
Cc1cc(C=Cc2ccc3cc(N(C)C)ccc3[n+]2C)c(C)n1-c1ccccc1
  ., -2.2
O=C(/C=C/c1cn(-c2ccccc2)nc1-c1ccc(F)cc1)N1CCOCC1
  -0.85, 0.52
COC(=O)C1=C(C)NC2=C(C(=O)CCC2)C1c1cc2c(cc1Br)OCO2 (configuration not stated)
  0.4, .
CCc1nc(SCC(=O)c2ccc(C)cc2)c(C#N)cc1C
  0.6, -0.06
NC(=O)COc1ccc(C23CC4CC(CC(C4)C2)C3)cc1
  0.7, 0.39
